# Screening results: PubChem, several laboratories
# Ecoli rRNA inh = inhibits bacterial ribosomal RNA function over humanized ribosomes. GFP signal change (wild-type ribosome), % (concentration not given with the values). E. coli WT GFP vs humanized-ribosome RFP mutants, fluorescence, 24 h; hits give low values; DMSO median 0, no signal -100. hit rate 1.6% among 350,000. AID 720706;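 active = significant combined selectivity score with lowered wild-type GFP, culture density cut under 30%, mutant RFP and density less affected; inactive = any of these conditions unmet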; note: one replicate is shown; some compounds called inactive have numbers as strong as hits
# T cruzi repl = blocks replication of Trypanosoma cruzi; inhibition, % (no concentration beside the values); AID 1885; T. cruzi beta-gal in NIH3T3, luminescence, 90 h; hit rate 1.4% among 300,000;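 active = mean inhibition across valid replicates above about 55%, limit read from the data; inconclusive = mean below that limit but half or more replicates reach it; inactive = mean below it, under half of replicates reach it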;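 note: signal also drops with host cell toxicity which is not excluded here; 0% = plate median of DMSO wells and 100% = zero luminescence signal; higher percent means less beta-gal luminescence so fewer parasites; stock transfer was 50 nL into about 50 µL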
# ALR inh = inhibitors of human sulfhydryl oxidase ALR. inhibition, % (concentration not given with the values). hit rate 3.8% among 290,000. purified ALR, DTT oxidation, H2O2 HRP-luminol luminescence. AID 485317. P55789;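 active = mean and each replicate at 75% or more; inconclusive = only one of the two met; inactive = neither met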;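 note: stock transfer was 7.5 nL into about 7.5 µL; 0% = neutral wells and 100% = wells with inactivated enzyme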
# LANA-H2A inh = blocks KSHV LANA binding to histone H2A/H2B; Q9QR71; cell-free LANA-H2A/H2B peptide, fluorescence polarization; inhibition, % (no concentration beside the values); hit rate 0.6% among 320,000; AID 2629; in the data active = inhibition mostly above about 10%, no sharp cut-off; inactive = mostly below about 6.7%;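 note: stock transfer was 7.5 nL into about 10 µL; 0% = median of vehicle wells and 100% = median of positive control wells; one replicate is shown; the record names a cut of 25% in any replicate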
# Target sequence (Q9QR71 whole entry, looked up): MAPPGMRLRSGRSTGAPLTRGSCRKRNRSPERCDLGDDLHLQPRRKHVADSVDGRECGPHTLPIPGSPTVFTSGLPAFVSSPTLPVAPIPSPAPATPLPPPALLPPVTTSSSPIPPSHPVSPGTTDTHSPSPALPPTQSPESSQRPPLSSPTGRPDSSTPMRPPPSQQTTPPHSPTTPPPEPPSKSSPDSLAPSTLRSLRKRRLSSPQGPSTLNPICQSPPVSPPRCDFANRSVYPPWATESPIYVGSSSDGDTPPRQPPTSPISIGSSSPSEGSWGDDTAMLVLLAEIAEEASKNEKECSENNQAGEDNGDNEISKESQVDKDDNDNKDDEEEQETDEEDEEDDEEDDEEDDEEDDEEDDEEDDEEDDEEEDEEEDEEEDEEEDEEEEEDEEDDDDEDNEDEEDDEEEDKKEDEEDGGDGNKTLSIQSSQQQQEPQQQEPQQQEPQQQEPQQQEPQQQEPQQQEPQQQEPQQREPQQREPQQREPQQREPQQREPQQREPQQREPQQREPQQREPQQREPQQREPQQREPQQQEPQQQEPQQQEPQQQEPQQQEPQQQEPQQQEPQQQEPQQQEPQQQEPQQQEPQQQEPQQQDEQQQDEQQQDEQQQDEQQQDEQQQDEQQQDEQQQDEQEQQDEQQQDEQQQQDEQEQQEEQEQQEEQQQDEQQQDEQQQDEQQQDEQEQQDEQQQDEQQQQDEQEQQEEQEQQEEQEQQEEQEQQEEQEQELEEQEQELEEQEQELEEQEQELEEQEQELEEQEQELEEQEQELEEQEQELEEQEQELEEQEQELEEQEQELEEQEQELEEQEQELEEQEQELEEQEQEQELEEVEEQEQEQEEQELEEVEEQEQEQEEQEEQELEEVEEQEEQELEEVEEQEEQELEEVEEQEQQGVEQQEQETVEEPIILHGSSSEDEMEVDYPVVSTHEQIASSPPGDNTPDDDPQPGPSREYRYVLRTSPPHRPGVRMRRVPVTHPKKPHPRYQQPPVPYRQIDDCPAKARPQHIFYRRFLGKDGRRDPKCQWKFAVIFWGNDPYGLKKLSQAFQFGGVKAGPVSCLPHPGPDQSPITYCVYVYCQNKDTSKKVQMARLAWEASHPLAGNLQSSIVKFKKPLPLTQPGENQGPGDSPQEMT
# Bfl-1 A1 inh = inhibitors of the anti-apoptotic protein A1, read as caspase activation; MEF A1-2A-BIM cells, Caspase-Glo 3/7 luminescence, 3 h; percent of clofoctol response, vehicle zero; caspase activation, % (test concentration not listed); hit rate 0.066% among 330,000; AID 2462;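 active = over half of replicate activation scores above 10%, or exactly half above 10 with the replicate mean above 10; inconclusive = replicate mean below 10 yet half the replicates above 10; inactive = over half of replicates below 10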;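 note: wells of about 30 µL received 50 nL stock; many hits fall short of the cut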
# Calb FLC = affects C. albicans growth with fluconazole; growth inhibition, % (test concentration not listed); C. albicans CaCi-2 (fluconazole-resistant clinical isolate) + fluconazole, Alamar Blue growth, 48 h; AID 1979; hit rate 0.57% among 300,000;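 active = most replicates above 75%; inconclusive = exactly half above 75%; inactive = most below 75%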;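 note: all wells also contain fluconazole at 8 µg/ml as a sub-toxic cotreatment; 0% = median of DMSO wells and 100% = median of geldanamycin control wells; wells of about 8 µL received 7.5 nL stock; the first replicate is given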
# B2AR ag = activates human beta-2 adrenergic receptor causing internalization; Am2.2-beta2AR cells, FAP receptor internalization, flow cytometry; reference of the scale not given here; response, % (concentration not given with the values); P07550; hit rate 0.43% among 340,000; AID 504454;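 active = response above a set limit, near 3 SD of response in nonfluorescent compounds, cut at about 42% in these data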;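 note: stock transfer was 100 nL into about 11 µL; a reference agonist was the positive control; negative values mostly stem from fluorescent compounds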
# Beta cell apopt = beta cell apoptosis inhibition; INS-1E cytokine-induced death, ATP luminescence, 48 h; percent of positive-control rescue, neutral wells zero; protection from apoptosis, % (test concentration not listed); hit rate 0.8% among 300,000; AID 435005;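 active = all replicates at 75% or more, or half of them and the mean; inconclusive = half reach 75% but not the mean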;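 note: 0% = cytokine-treated negative control wells and 100% = positive control rescue; higher means more ATP so stronger rescue from cytokine killing; wells of about 40 µL received 100 nL stock; the first replicate is given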
# Ecoli rRNA inh OD600 = also measured in Ecoli rRNA inh; calls as there; OD600 change, %; measured here: OD600 growth;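 optical density of the mix in the first replicate; 0 = DMSO median and -100 = no signal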
# Ecoli rRNA inh RFP = recorded beside Ecoli rRNA inh, whose call it bears; RFP signal change, %; measured here: RFP humanized mutant strains;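 first replicate; 0 = DMSO median and -100 = no signal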
# * marks the source's active call; other numbers are inactive results; i = inactive; ? = inconclusive; nt = no result given. Only part of the results is shown; rates above refer to the full screens.
SMILES,Ecoli rRNA inh,Ecoli rRNA inh OD600,Ecoli rRNA inh RFP,T cruzi repl,ALR inh,LANA-H2A inh,Bfl-1 A1 inh,Calb FLC,B2AR ag,Beta cell apopt
Cn1nc(-c2ccccc2F)c2cc(C(=O)N3CCN(C(=O)c4ccco4)CC3)sc21,nt,nt,nt,8,5,0.0,0.7,12,0,5
COC(=O)c1ccc2c(=O)n3c(nc2c1)SCC(c1ccccc1)=N3,7,12,0.4,5,2,-1.4,-5.3,7,1,nt
O=C(NNc1c2ccccc2nc2ccccc12)c1ccccc1Cl,-25,-28,3.5,38,-6,2.4,0.4,8,-10,5
Cn1cc(CC(=O)NCCN2CCOCC2)c2ccccc21,12,13,0.6,-22,-8,-4.0,0.4,-16,8,-1
Cc1ccc(NC(=O)CSCC(=O)N2CCN(Cc3ccc4c(c3)OCO4)CC2)cc1,-18,-19,-0.8,0,-39,1.3,0.2,-12,2,-2
N#CSCC(=O)c1cccc2ccccc12,nt,nt,nt,nt,nt,2.5,0.7,nt,23,-17
CNC(=S)N1N=C(c2ccccc2)CC1c1ccccc1Cl (centres undefined),9,9,2.3,15,2,0.0,-0.7,65*,11,21
N#Cc1ccccc1OCC(=O)Nc1ccc(S(=O)(=O)N2CCOCC2)cc1,-1,1,-4.2,nt,0,6.6,1.6,nt,2,3
O=C(CN1CCN(Cc2ccc(F)cc2Cl)C1=O)NCCc1ccccc1,-5,-3,3.7,12,-10,-1.0,-0.2,0,3,-4
COc1ccc(CNCC(O)(c2ccccc2)c2ccccc2)cc1OC,5,5,-2.1,-10,-9,0.6,-0.6,3,0,21
C=CCn1c(SCn2nnc3ccccc3c2=O)nnc1C1CCCCC1,nt,nt,nt,-9,-6,-4.3,0.0,4,0,-8
C/C(=N/NC(=O)c1ccccn1)c1ccco1,nt,nt,nt,-1,-11,-1.9,-6.5,-10,-4,20
O=C(NC(=O)N1CCN(C(c2ccccc2)c2ccccc2)CC1)c1ccccc1,-20,-25,0.8,-19,-13,1.7,1.0,8,1,-5
COC(=O)c1ccc(CN(c2ccccc2Cl)S(C)(=O)=O)cc1,-26,-21,1.3,-12,-15,2.9,0.8,0,-6,-3
COc1ccc2sc(-c3ccc(S(C)(=O)=O)cc3)c(-c3ccc(C(N)=O)cc3)c2c1,7,3,-0.2,nt,4,-3.0,-0.3,nt,-4,0
CCc1ccc(-c2cc(C)no2)cc1S(=O)(=O)N1CCCN(Cc2ccc(F)cc2)C1,-1,-33,1.3,24,-3,-1.4,0.3,-26,-8,-1
O=C(CN1CCN(C(=O)c2ccccc2)CC1)Nc1cc(S(=O)(=O)N2CCCC2)ccc1Cl,6,6,2.7,nt,0,-392,0.0,nt,14,-2
Cc1ccc(N(C(=O)c2ccc(S(=O)(=O)N3CCOCC3)cc2)C2C=CS(=O)(=O)C2)cc1 (centres undefined),8,7,5.6,0,-15,-0.1,-0.1,8,5,-1
OCCC1CN(Cc2ccccn2)CCN1C1CCCC1 (centres undefined),3,4,1.7,10,-7,3.1,0.0,20,2,3
COc1ccc2nc3cc(Cl)ccc3c(C#N)c2c1,3,8,1.4,0,-19,-0.9,-0.7,-1,0,-1
Cc1cc(N/N=C\c2ccccc2)nc(-c2ccccc2O)n1,nt,nt,nt,52,0,-12,-0.9,-11,5,19
O=C(NCc1ccncc1)Nc1ccc(Cl)cc1Cl,nt,nt,nt,-7,-3,-5.3,?,1,-2,nt
CC1(C)Cc2nc(-c3ccccc3)nc(NNC(=O)c3ccco3)c2CO1,1,-4,2.3,-10,97*,-1.6,-3.3,5,5,-1
COc1cc(O)oc1C=Nc1ccc(Cl)cc1Cl,nt,nt,nt,-11,-6,-2.3,0.2,2,-7,-7
N#CCCNCC1(c2ccccc2)CCCC1,nt,nt,nt,4,nt,2.8,-0.8,-4,-4,-9
CC(=O)Nc1sc(/C(C#N)=C\c2cccc(Cl)c2)nc1-c1ccc(C)cc1,39,6,34,18,-11,-5.8,0.2,20,i,0
Cc1ccc(C(=O)Nc2ccccc2)cc1S(=O)(=O)N1CCN(C)CC1,10,9,-1.2,11,2,0.1,-7.8,-17,-5,-5
Cc1cccc(N(C)S(=O)(=O)c2c(C)[nH]c(C)c2C(=O)N2CCCC2)c1,1,-1,-1.7,-4,9,-0.6,0.6,-2,4,-2
COc1ccc(C(CNc2ccc(S(=O)(=O)N3CCCC3)cc2[N+](=O)[O-])N2CCCC2)cc1 (centres undefined),nt,nt,nt,59*,-47,-1.8,0.3,1,-6,nt
COc1ccc(N2C(=O)CC(Sc3n[nH]c(-c4cccc(C)c4)n3)C2=O)cc1 (centres undefined),-9,-4,1.1,-11,99*,3.3,1.2,-2,3,-9
O=C(NCCCCc1ccccc1)c1ccc(F)cc1,-18,-12,-3.1,-17,-16,-5.0,-0.6,-9,-3,5
COc1ccc(-c2nc(N)sc2C2(O)C(=O)Nc3c(Br)cc(F)cc32)cc1OC (centres undefined),-3,-14,0.3,-17,nt,-11,0.3,-24,2,-4
Cc1ccc2c(Cl)c(C(=O)Nc3ccc4c(c3)OCO4)sc2c1,nt,nt,nt,-4,nt,0.6,-5.7,-23,21,-1
O=C(NC1CCCCC1)C(c1ccco1)N(Cc1ccco1)C(=O)c1ccco1 (centres undefined),-8,-11,0.5,16,10,0.5,0.0,-9,3,3
C=CCn1c(SCC(=O)Nc2cc(C)on2)nc2c([nH]c3ccccc32)c1=O,9,19,-1.0,-17,-12,-6.1,1.0,nt,-1,11
COc1ccc(-n2nnnc2SCC(=O)N2C(C)CCCC2C)c(OC)c1 (centres undefined),nt,nt,nt,7,-3,-2.8,1.3,8,-7,-1
Cc1ccc(O)c(C(=O)c2cnc3c(c2)c(C)nn3C)c1,-30,-41,-7.1,-21,-9,-1.3,-0.1,-5,1,-4
O=C(O)c1ccccc1NS(=O)(=O)c1ccc2c(c1)OCCO2,1,6,-0.2,3,-5,3.6,-0.1,-4,3,-1
Cc1occc1-c1nnc(SCC(=O)NCc2ccco2)n1CC(C)C,nt,nt,nt,1,5,2.8,-0.4,6,9,1
COc1ccccc1N(CC(O)Cn1c2ccccc2c2ccccc21)S(=O)(=O)c1ccccc1 (centres undefined),8,10,-0.7,63*,3,-8.6,1.0,2,1,6
CC1(C)NC(=O)N(CCCCOc2ccc3c(c2)CCC3)C1=O,nt,nt,nt,-7,9,-4.5,0.3,-19,7,-8
O=C(O)COc1ccccc1/C=N/NC(=O)CN1CCN(Cc2ccc(Cl)cc2)CC1,11,4,-4.5,-6,-4,2.9,-0.9,7,-5,-12
Cn1cnnc1Sc1ccc(CN2CCN(C3CCCC3)C(CCO)C2)o1 (centres undefined),19,15,6.7,-13,-6,2.8,1.3,-2,-1,-2
O=C(O)COc1cccc2nsnc12,nt,nt,nt,-12,-22,2.0,-0.4,6,-8,-6
Cc1c(Cl)cccc1Nc1nc(N)nc(CSC(=S)N2CCOCC2)n1,nt,nt,nt,-21,2,1.9,-0.5,12,-10,-2
CC(=O)Nc1cc2c(cc1C(=O)c1ccc(C)cc1)OCCO2,nt,nt,nt,11,nt,-0.6,0.3,-12,-2,-4
CC(Sc1ccccc1)C(=O)NCC(c1ccco1)N1CCCCC1 (centres undefined),6,6,-0.3,5,1,2.0,0.6,-7,3,-2
CC(C)(c1ccccc1)c1ccc(OCCn2cnc3ccccc3c2=O)cc1,nt,nt,nt,18,-2,-1.7,-0.2,1,0,4
CCCCCC#CCN1CCN(C23CC4CC(CC(C4)C2)C3)CC1,nt,nt,nt,nt,-21,3.9,0.8,nt,3,2
CCOc1ccc(N2C(=O)CC(Cc3ccccc3OC)C2=O)cc1 (centres undefined),3,-1,0.7,-11,-11,1.9,0.7,1,-3,-6
S=C(NCCc1ccccc1)N/N=C/c1c(Cl)cccc1Cl,nt,nt,nt,-10,nt,-5.1,0.3,2,-1,-4
COc1ccccc1NC(=O)CN1CCN(CC(=O)Nc2ccc(S(N)(=O)=O)cc2)CC1,5,27,5.4,-6,4,1.5,-0.1,-3,15,-1
COc1ccc(OCc2csc(N)n2)cc1,19,10,1.7,0,-3,0.6,-4.2,-31,3,4
CCCCn1cnc2sc(-c3ccccc3)cc2c1=O,nt,nt,nt,8,-5,1.5,-0.2,-5,-4,-4
COc1ccc(C=NNC(=O)c2ccccc2OCc2ccc(F)cc2)c(OC)c1,6,9,-4.0,nt,-10,3.4,-0.7,nt,15,9
O=C(CNS(=O)(=O)c1cccs1)NCCc1ccc(Cl)cc1,-3,2,0.8,-5,-2,-5.4,1.0,1,-8,-5
Clc1cccc(NCc2nnc(SCc3ccccc3)o2)c1,nt,nt,nt,-11,1,0.9,0.2,-2,-6,-13
CCCCOC(=O)c1ccc(OC(=O)c2cccnc2)cc1,nt,nt,nt,0,29,-4.4,-1.2,-16,4,2
O=C(NCCc1nnc2ccc(N3CCCCCC3)nn12)c1ccccc1,-2,0,0.5,14,-26,-1.8,1.5,-9,-10,0
CCN(CC)/C(Sc1ccccc1)=C(/C(Cl)=C(Cl)Cl)[N+](=O)[O-],10,7,-1.0,1,46,2.9,-0.2,16,-2,-9

# Other structures follow.
SMILES,Ecoli rRNA inh,Ecoli rRNA inh OD600,Ecoli rRNA inh RFP,T cruzi repl,ALR inh,LANA-H2A inh,Bfl-1 A1 inh,Calb FLC,B2AR ag,Beta cell apopt
CCCCCn1c(CNC(=O)CC)nc2ccccc21,1,-5,-0.2,6,-19,1.7,0.5,2,2,-5
O=C1/C(=C/c2ccc(F)cc2)SC(=S)N1CCCC(=O)N1CCCCC1CCO (centres undefined),-19,-28,-4.3,5,-1,-0.4,-1.5,8,-6,-65
O=C(COC(=O)CNS(=O)(=O)c1ccc(Br)cc1Cl)NC1CC1,4,4,-0.2,-11,nt,nt,0.9,6,-10,-7
Cc1ccc(C(=O)OCC(=O)Nc2ccccc2)cc1S(=O)(=O)N1CCCCC1,-17,-22,-3.3,nt,-2,1.4,0.2,nt,3,-2
CCN(CC)S(=O)(=O)c1ccc(NC(=O)c2nc3nc(C)cc(C)n3n2)cc1,7,12,-6.3,-6,nt,1.4,1.4,-6,nt,-4
CCOc1cc(/C=N/NC(=O)c2nnn(-c3nonc3N)c2C)ccc1OCc1ccc(F)cc1,7,6,0.1,-4,1,2.6,-1.2,2,20,7
CCN1CCN(c2ccc(S(=O)(=O)N3CCOCC3)cc2NC(=O)c2cccc([N+](=O)[O-])c2)CC1,-2,4,1.3,nt,-4,4.6,0.6,nt,3,-10
CCOC(=O)C1CCN(c2c(Nc3cc(C)cc(C)c3)c(=O)c2=O)CC1,5,0,2.3,-6,4,1.6,0.5,8,-3,4
CCOC(=O)c1c(-c2ccccc2)nnn1-c1nc(OC)nc(N2CCOCC2)n1,nt,nt,nt,14,1,-1.0,-0.1,-13,-9,-8
CCC(C)N1CCN(S(=O)(=O)Cc2ccccc2)CC1 (centres undefined),7,12,-4.3,3,0,-5.6,-0.1,-2,7,-3
O=C(COC(=O)c1ccccc1F)NC(=O)NC1CCCC1,-5,-10,-0.9,nt,0,1.4,0.1,nt,1,-1
